Bioassay records from PubChem.
A1 inh: caspase 3/7 activation in MEF A1-2A-BIM cells, primary screen, A1 inhibitor project, cell-based, luminescence, HTS. actives 0.066% (n = 330,000). Caspase-Glo 3/7 luminescence, 3 h; percent of clofoctol response, vehicle zero. AID 2462, 2010. caspase activation, % (concentration not given with the values);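 active means over half of replicate activation scores above 10%, or exactly half above 10 with the replicate mean above 10; inconclusive means replicate mean below 10 yet half the replicates above 10; inactive means over half of replicates below 10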;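 further: wells of about 30 µL received 50 nL stock; many hits fall short of the cut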
T cruzi repl: inhibitors of intracellular T. cruzi growth, primary screen, luminescence, NIH3T3 host cells; T. cruzi beta-gal in NIH3T3, 90 h; inhibition, % (no concentration beside the values); actives 1.4% (n = 300,000); AID 1885, 2009;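 active means mean inhibition across valid replicates above about 55%, limit read from the data; inconclusive means mean below that limit but half or more replicates reach it; inactive means mean below it, under half of replicates reach it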;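 further: signal also drops with host cell toxicity which is not excluded here; 0% = plate median of DMSO wells and 100% = zero luminescence signal; higher percent means less beta-gal luminescence so fewer parasites; stock transfer was 50 nL into about 50 µL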
Ecoli rRNA inh: reduced GFP signal of wild-type E. coli, primary screen, bacterial rRNA inhibitor project, GFP/RFP fluorescence, OD600, single point. E. coli WT GFP vs humanized-ribosome RFP mutants, 24 h; active compounds read low; DMSO median 0, no signal -100. GFP signal change (wild-type ribosome), % (concentration not given with the values). actives 1.6% (n = 350,000). AID 720706, 2013;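 active means significant combined selectivity score with lowered wild-type GFP, culture density cut under 30%, mutant RFP and density less affected; inactive means any of these conditions unmet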; further: one replicate is shown; some compounds called inactive have numbers as strong as hits
LANA-H2B inh: blockers of LANA interaction with H2A/H2B – biochemical, FP readout, HTS, primary screen | actives 0.6% (n = 320,000) | Protein LANA1 (Human herpesvirus 8 type P (isolate GK18)), Q9QR71 | inhibition, % (test concentration not listed) | cell-free LANA-H2A/H2B peptide, fluorescence polarization; in the data active means inhibition mostly above about 10%, no sharp cut-off; inactive means mostly below about 6.7%;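 further: stock transfer was 7.5 nL into about 10 µL; 0% = median of vehicle wells and 100% = median of positive control wells; one replicate is shown; the record names a cut of 25% in any replicate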
ALR H2O2 inh: inhibitors of human ALR sulfhydryl oxidase, primary screen, biochemical, H2O2 detection, HRP-luminol luminescence, single point; actives 3.8% (n = 290,000); inhibition, % (no concentration beside the values); FAD-linked sulfhydryl oxidase ALR (Homo sapiens), P55789; purified ALR, DTT oxidation;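 active means mean and each replicate at 75% or more; inconclusive means only one of the two met; inactive means neither met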;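 further: stock transfer was 7.5 nL into about 7.5 µL; 0% = neutral wells and 100% = wells with inactivated enzyme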
Target sequence (P55789 whole entry, looked up): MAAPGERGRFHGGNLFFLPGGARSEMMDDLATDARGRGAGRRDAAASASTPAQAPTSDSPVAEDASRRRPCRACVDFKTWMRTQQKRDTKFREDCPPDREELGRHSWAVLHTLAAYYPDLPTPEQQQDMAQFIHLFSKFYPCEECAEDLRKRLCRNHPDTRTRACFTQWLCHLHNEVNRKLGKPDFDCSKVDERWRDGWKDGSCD
Beta apoptosis: inhibitors of cytokine-induced beta cell apoptosis, primary screen, luminescence; actives 0.8% (n = 300,000); INS-1E cytokine-induced death, ATP luminescence, 48 h; percent of positive-control rescue, neutral wells zero; protection from apoptosis, % (test concentration not listed); AID 435005, 2010;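 active means all replicates at 75% or more, or half of them and the mean; inconclusive means half reach 75% but not the mean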;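 further: 0% = cytokine-treated negative control wells and 100% = positive control rescue; higher means more ATP so stronger rescue from cytokine killing; wells of about 40 µL received 100 nL stock; the first replicate is given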
Beta2AR agonist: beta2AR agonists driving receptor internalization, primary screen, cell-based, FAP fluorogen, flow cytometry | AID 504454, 2011 | actives 0.43% (n = 340,000) | Beta-2 adrenergic receptor (Homo sapiens), P07550 | response, % (no concentration beside the values) | Am2.2-beta2AR cells; reference of the scale not given here;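 active means response above a set limit, near 3 SD of response in nonfluorescent compounds, cut at about 42% in these data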;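 further: stock transfer was 100 nL into about 11 µL; a reference agonist was the positive control; negative values mostly stem from fluorescent compounds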
Target sequence (P07550 whole entry, looked up): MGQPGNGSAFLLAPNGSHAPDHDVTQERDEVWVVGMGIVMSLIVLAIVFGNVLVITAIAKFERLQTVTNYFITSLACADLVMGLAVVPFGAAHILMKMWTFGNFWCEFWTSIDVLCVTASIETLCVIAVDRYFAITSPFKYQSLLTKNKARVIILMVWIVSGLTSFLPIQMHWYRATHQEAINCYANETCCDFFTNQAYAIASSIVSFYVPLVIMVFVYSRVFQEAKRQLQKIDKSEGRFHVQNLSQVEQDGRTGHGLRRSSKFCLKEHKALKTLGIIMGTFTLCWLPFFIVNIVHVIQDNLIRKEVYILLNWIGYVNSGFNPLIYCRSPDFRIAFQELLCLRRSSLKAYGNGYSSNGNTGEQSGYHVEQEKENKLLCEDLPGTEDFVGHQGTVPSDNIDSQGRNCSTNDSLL
Calb FLC: C. albicans growth inhibition with fluconazole, primary screen, CaCi-2 strain, Alamar Blue fluorescence; actives 0.57% (n = 300,000); growth inhibition, % (test concentration not listed); C. albicans CaCi-2 (fluconazole-resistant clinical isolate) + fluconazole, 48 h;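 active means most replicates above 75%; inconclusive means exactly half above 75%; inactive means most below 75%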;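 further: all wells also contain fluconazole at 8 µg/ml as a sub-toxic cotreatment; 0% = median of DMSO wells and 100% = median of geldanamycin control wells; wells of about 8 µL received 7.5 nL stock; the first replicate is given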
Ecoli rRNA inh OD600: second read-out of Ecoli rRNA inh, no call of its own (marks repeat the call); OD600 change, %; measured here: OD600 growth;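 optical density of the mix in the first replicate; 0 = DMSO median and -100 = no signal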
Ecoli rRNA inh RFP: second read-out of Ecoli rRNA inh, no call of its own (marks repeat the call); RFP signal change, %; measured here: RFP humanized mutant strains;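 first replicate; 0 = DMSO median and -100 = no signal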
Numbers without * were called inactive; ? = inconclusive; . = not tested or not shown. This is a subset; rates above refer to the full screens.

SMILES | A1 inh | T cruzi repl | Ecoli rRNA inh | Ecoli rRNA inh OD600 | Ecoli rRNA inh RFP | LANA-H2B inh | ALR H2O2 inh | Beta apoptosis | Beta2AR agonist | Calb FLC
COc1ccc(-n2c(C)n[nH]c2=O)cc1 | 0.7 | 0.5 | . | . | . | 1.4 | -10.1 | . | -0.7 | -4.0
Cc1cc(-c2cccnc2)c(C#N)c(SCc2cccc(F)c2)n1 | 0.0 | 30.1 | . | . | . | 2.7 | -2.8 | 11.1 | -9.9 | 3.5
COc1ccc2nc(SCC(=O)Nc3nonc3C)[nH]c2c1 | -0.1 | -13.7 | -5.4 | 3.7 | 1.6 | -3.8 | . | -3.2 | -1.4 | -4.1
COc1ccc(C2NC(=O)NC(C)=C2C(=O)OC2CCCCC2)cc1OC (stereo not drawn) | 0.1 | 4.2 | 5.3 | -2.9 | -1.0 | 1.7 | -0.8 | -13.7 | -37.0 | -1.6
Cc1cccc(NS(=O)(=O)c2cccc(C(=O)N3CCN(C/C=C/c4ccccc4)CC3)c2)c1 | -0.8 | . | . | . | . | 3.1 | 1.8 | 9.7 | 1.0 | .
COc1cccc(-c2nc(CS(=O)(=O)CC(=O)NCCCN3CCN(C)CC3)c(C)o2)c1 | 1.3 | 3.7 | 7.3 | 6.5 | 3.1 | -0.1 | 98.5* | -2.7 | 0.6 | -1.6
COC(=O)CSc1nc(-c2cccs2)ccc1C#N | 0.3 | -11.7 | -22.1 | -11.8 | 12.9 | -0.5 | -8.2 | -1.1 | 4.5 | -3.9
CCOC(=O)COc1ccc2c(c1)C(=O)CC1(CCCCC1)O2 | -1.0 | -2.9 | . | . | . | -3.0 | -34.0 | -15.6 | 4.8 | -3.8
Cc1nnc(SCc2ccc(F)cc2)n1NC/C=C/c1ccccc1 | -1.8 | 26.9 | . | . | . | -3.2 | 0.4 | -1.5 | -0.9 | 13.1
COc1cc(/C=N/NC(=O)c2cc(-c3ccccc3OC(C)C)nc3ccccc23)ccc1O | -0.4 | -5.8 | . | . | . | 0.9 | 34.7 | 12.9 | 9.2 | 35.3
CCOC(=O)c1c(C)[nH]c(C)c1C(=O)COC(=O)CCOc1ccccc1OC | 0.5 | 8.8 | . | . | . | -4.5 | -8.8 | -1.4 | 3.7 | 6.4
Cn1c(NC(=O)CCc2ccccc2)cc(=O)n(C)c1=O | 0.0 | 0.6 | 3.9 | 3.8 | -0.7 | 0.1 | 0.4 | . | -3.3 | 4.1
COC(=O)c1c(NC(=O)C2CC=CCC2C(=O)O)sc(C(N)=O)c1C (stereo not drawn) | -0.5 | -11.8 | . | . | . | 1.3 | 99.2* | -3.1 | -3.5 | -6.9
Cc1nn(C(C)CC(=O)O)c(C)c1C (stereo not drawn) | 0.0 | -10.1 | . | . | . | 2.0 | -1.9 | -4.8 | 3.8 | -2.4
O=C(Nc1cccc(Cl)c1)c1nc[nH]c1C(=O)NCCCNC(=O)c1[nH]cnc1C(=O)Nc1cccc(Cl)c1 | -0.5 | . | 22.8 | 9.0 | 1.9 | -1.8 | 2.9 | -0.6 | 18.5 | .
CCc1ccc2nc3sc(C(=O)N4CCc5ccccc54)c(N)c3cc2c1 | 0.1 | -22.1 | . | . | . | -1.7 | . | 10.0 | . | -15.6
CCn1c(=O)n(CC(=O)NCC2CCCO2)c(=O)c2c3c(sc21)COC(C)(C)C3 (stereo not drawn) | -0.8 | -1.0 | 2.3 | 8.5 | -2.7 | 1.5 | -4.0 | -2.4 | 4.1 | -0.8
COc1cccc(NC(=O)c2cncs2)c1 | -1.2 | 1.7 | 1.1 | 3.9 | 1.0 | 3.6 | 3.0 | . | 0.1 | 6.7
Cc1cc(C)n2c(SCC(=O)NCc3ccco3)nnc2n1 | 0.7 | -16.5 | . | . | . | -0.5 | 4.9 | 0.6 | -9.8 | -4.0
CC(NC(=O)COc1ccccc1)C(c1ccccc1)N1CCN(C)CC1 (stereo not drawn) | -0.9 | -1.8 | . | . | . | 0.3 | 97.9* | -6.8 | -5.1 | -2.1
Cc1[nH]c2ccccc2c1/C=N/Nc1nc(Nc2ccc(F)cc2)nc(N2CCOCC2)n1 | 2.4 | . | . | . | . | 2.7 | 7.3 | 4.1 | -0.6 | -12.2
COc1cc2ncnc(Nc3ccc4c(c3)OCO4)c2cc1OC | 0.4 | 23.8 | 3.3 | 12.3 | -8.8 | 0.1 | 10.3 | 22.9 | 7.7 | -4.1
CCCN(CC(=O)Nc1ccccc1C)C(=O)COc1ccc2c(c1)CCC2 | 1.3 | -5.8 | -7.2 | -11.8 | 0.1 | -0.3 | -4.9 | -0.7 | -0.7 | 5.7
COc1ccc(CCNC(=O)C(=O)NCC2OCCN2S(=O)(=O)c2ccc(F)cc2)cc1OC (stereo not drawn) | 0.4 | -4.2 | 1.1 | 6.7 | -4.2 | 1.5 | . | 0.0 | -7.2 | -9.6
C=CCNc1nnc(Cl)c2ccccc12 | 0.9 | -21.8 | -9.2 | -4.1 | -14.6 | -4.2 | -13.3 | -10.4 | -2.3 | 29.6
CCS(=O)(=O)N1Cc2ccccc2CC1C(=O)Nc1nccs1 (stereo not drawn) | -0.4 | -9.7 | -7.9 | -6.1 | -9.0 | -3.9 | -7.6 | 3.1 | -4.9 | -3.3
CCn1nc(C)c(NC(=O)/C=C/c2cnn(C)c2C)c1C | 1.1 | 0.7 | . | . | . | -1.3 | -15.6 | -2.8 | -1.2 | -7.8
CC(=O)Nc1ccc(NC(=O)C2c3ccccc3Oc3ccccc32)cc1 | 0.6 | -18.9 | 11.2 | 15.2 | -0.4 | 0.8 | -9.2 | -4.0 | 0.8 | 4.2
CC(C)CCNc1nc2c(c(=O)[nH]c(=O)n2C)n1CC(O)COC(C)C (stereo not drawn) | -0.2 | 3.6 | . | . | . | 1.2 | 28.7 | -7.0 | -16.4 | -19.4
CCOc1ncccc1C(=O)OCC(=O)Nc1c(C)cccc1C | 0.3 | -18.2 | . | . | . | 1.3 | 4.3 | -10.0 | 28.3 | 3.0
CN(C)c1ccc(C(c2ccc(N(C)C)cc2)c2ccc([N+](=O)[O-])cc2)cc1 | -0.4 | 49.4 | -6.3 | 5.7 | 3.8 | -3.6 | -9.3 | 17.4 | -2.8 | 50.5
COc1cc(/C=N/NC(=O)c2ccccc2)ccc1O | 1.8 | -5.7 | 15.2 | 12.9 | 1.7 | 0.0 | 99.8* | -0.2 | 0.1 | -1.3
O=Cc1c(N2CCC3(CC2)OCCO3)nc2ccccn2c1=O | 0.6 | -5.9 | 14.2 | 2.5 | -2.3 | 1.5 | -1.8 | 1.7 | -4.0 | 0.9
CC(=O)N=c1c(C#N)cc2c(=O)n3cccc(C)c3nc2n1CCCOC(C)C | -0.7 | 10.1 | . | . | . | 3.4 | -4.0 | 4.7 | -3.2 | -5.6
CC(=O)c1cccc(NC(=O)c2ccc(OC3CSC3)cc2)c1 | -7.6 | -0.5 | 7.7 | 16.8 | 0.0 | 2.1 | -33.9 | 3.2 | 2.4 | 29.1
CCOC(=O)CSc1nc2cc(C(=O)N3CCC(C(N)=O)CC3)ccc2c(=O)n1C1CCCCC1 | 0.2 | 16.2 | 4.9 | 1.8 | -2.3 | -0.3 | 96.8* | -3.9 | -13.6 | -5.6
O=C(Nc1cccc(S(=O)(=O)N2CCCCCC2)c1)C1CCC1 | -0.4 | -4.3 | 1.1 | 0.6 | -1.6 | -3.9 | 2.9 | -2.0 | -1.4 | -1.3
CCNC(=S)N1CCC(c2nc3ccccc3s2)CC1 | 1.3 | 5.4 | . | . | . | -1.2 | -23.0 | -12.7 | -3.2 | 10.7
O=C(O)/C=C\C(=O)Nc1cc(O)ccc1[N+](=O)[O-] | -0.4 | -14.1 | 9.5 | 2.2 | -6.0 | -4.4 | -9.8 | -11.3 | 3.2 | 2.8
Cc1ccc(-c2nc(C3CCN(S(=O)(=O)c4ccc(C(C)(C)C)cc4)CC3)no2)cc1 | 0.3 | 19.4 | 6.0 | 12.1 | 3.2 | 2.4 | -18.7 | 5.2 | -2.7 | 4.3
Cc1ccc(Oc2ccccc2/C=C/C(=O)O)cc1 | 0.2 | -9.7 | . | . | . | -0.2 | 1.1 | 0.3 | 11.3 | 0.6
N#C/C(=C\c1cccnc1)c1nc2ccccc2[nH]1 | -0.3 | 10.4 | -0.9 | -0.5 | 6.1 | 0.7 | 3.0 | 5.2 | -3.3 | -9.7
CCN(CC)CCn1c(=S)[nH]c2cc(Cl)ccc2c1=O | 0.5 | -6.9 | . | . | . | -1.0 | 47.8 | 0.2 | -5.8 | 6.4
COc1ccc(C2=NN(C(=O)CN3CCCC3)C(c3ccc(OC)cc3)C2)cc1 (stereo not drawn) | 0.2 | 15.3 | 12.4 | 3.0 | 0.8 | 0.9 | . | 6.4 | 0.4 | -6.5
O=C(NC(=S)Nc1ccc(Oc2ccc(Cl)cc2)cc1)c1ccccc1 | -0.3 | ? | . | . | . | 9.9 | 0.5 | 6.6 | -0.1 | -9.3
CN(Cc1ccco1)S(=O)(=O)c1cc(F)ccc1CN1C(=O)c2cccnc2C1=O | 0.1 | -2.9 | 12.3 | -8.8 | 3.4 | 3.5 | -16.4 | -4.7 | -2.7 | -7.6
CCn1c(NCc2c[nH]c3ccccc23)nc2ccccc21 | 1.0 | -8.9 | . | . | . | 3.6 | 38.9 | . | 0.9 | 18.4
COc1ccc(-c2nc(CCNC(=O)c3ccc(Br)o3)cs2)cc1 | -0.6 | 9.3 | -22.8 | -75.5 | -22.8 | 1.5 | 64.4 | 4.2 | 0.6 | -3.3
CN(Cc1ccc(C(F)(F)F)cc1)C(=O)c1ccc(Oc2ccccc2)cc1 | -0.5 | 42.9 | -22.1 | -27.6 | 0.1 | -2.4 | -4.3 | 4.7 | -19.3 | -8.5
CCOc1ccc(Br)cc1S(=O)(=O)Nc1ccccc1N1CCOCC1 | -0.2 | 26.8 | . | . | . | 7.9 | -6.4 | -3.2 | -4.2 | 24.2
O=C(CCc1nc2sc3c(c2c(=O)[nH]1)CCCC3)NCCc1ccccc1 | 0.0 | 9.8 | 0.7 | -2.8 | -0.8 | 2.4 | 9.8 | 0.7 | -2.1 | 1.6
Cc1ccc(C(=O)c2oc3ccccc3c2NC(=O)c2cc(-c3cc(C)ccc3O)n[nH]2)cc1 | -0.8 | 19.2 | 1.7 | -4.0 | -4.4 | 5.3 | -4.7 | 24.2 | 1.8 | -2.0
